T cruzi repl: T. cruzi replication inhibition; T. cruzi beta-gal in NIH3T3, luminescence, 90 h; hit rate 1.4% among 300,000; inhibition, % (no concentration beside the values);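 active = mean inhibition across valid replicates above about 55%, limit read from the data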;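 also: signal also drops with host cell toxicity which is not excluded here; 0% = plate median of DMSO wells and 100% = zero luminescence signal; higher percent means less beta-gal luminescence so fewer parasites; stock transfer was 50 nL into about 50 µL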
rRNA inh HTS: inhibits bacterial ribosomal RNA function over humanized ribosomes. hit rate 1.6% among 350,000. GFP signal change (wild-type ribosome), % (no concentration beside the values). AID 720706. E. coli WT GFP vs humanized-ribosome RFP mutants, fluorescence, 24 h; active compounds read low; DMSO median 0, no signal -100;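 active = significant combined selectivity score with lowered wild-type GFP, culture density cut under 30%, mutant RFP and density less affected; inactive = any of these conditions unmet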; also: one replicate is shown; some compounds called inactive have numbers as strong as hits
FGF22 binding: FGF22 (human) thermal shift binding; Q9HCT0; recombinant FGF22 thermal shift, SYPRO orange fluorescence; percent of sucrose octasulfate shift, DMSO zero; calls only at 9.99 µM; hit rate 1.5% among 340,000; AID 651658;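 active = melting point raised past a set limit in the mean and every replicate; three in four hits are not shown here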
Target sequence (Q9HCT0 whole entry, looked up): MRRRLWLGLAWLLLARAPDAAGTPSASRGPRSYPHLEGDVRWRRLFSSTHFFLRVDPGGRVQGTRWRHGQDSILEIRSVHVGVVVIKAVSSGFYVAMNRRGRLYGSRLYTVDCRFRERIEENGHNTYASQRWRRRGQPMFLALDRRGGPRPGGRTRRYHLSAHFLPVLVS
MLL AF4-AF9 inh: MLL-AF4/AF9 protein interaction inhibition | AlphaScreen, biotin-AF4 peptide binding to FLAG-AF9 | inhibition, % at 10 µM | hit rate 0.47% among 350,000;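 active = every replicate reaching a set inhibition limit, whatever the replicate mean, cut at about 25% in these data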;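 also: 0% = plate neutral control median and 100% = total signal loss; the record names both 10 and 1 µM as test concentration; the first replicate is given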
Target sequence (P42568 whole entry, looked up): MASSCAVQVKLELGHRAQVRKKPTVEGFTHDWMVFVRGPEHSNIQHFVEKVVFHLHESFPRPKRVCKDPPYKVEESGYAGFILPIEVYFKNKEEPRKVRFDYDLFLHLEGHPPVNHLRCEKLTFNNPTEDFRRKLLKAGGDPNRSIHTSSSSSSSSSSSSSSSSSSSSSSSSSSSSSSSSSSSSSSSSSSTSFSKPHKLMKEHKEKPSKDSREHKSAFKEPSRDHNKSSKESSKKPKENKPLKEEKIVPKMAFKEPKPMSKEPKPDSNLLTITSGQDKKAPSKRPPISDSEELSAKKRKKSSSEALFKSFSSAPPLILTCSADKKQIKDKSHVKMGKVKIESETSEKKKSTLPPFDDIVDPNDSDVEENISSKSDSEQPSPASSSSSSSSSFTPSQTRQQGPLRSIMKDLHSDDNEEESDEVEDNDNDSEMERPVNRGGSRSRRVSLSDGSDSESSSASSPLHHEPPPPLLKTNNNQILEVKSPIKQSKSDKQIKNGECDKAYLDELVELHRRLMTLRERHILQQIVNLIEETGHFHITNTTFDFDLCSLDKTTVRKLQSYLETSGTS
Beta cell apopt: blocks beta cell apoptosis; INS-1E cytokine-induced death, ATP luminescence, 48 h; percent of positive-control rescue, neutral wells zero; protection from apoptosis, % (test concentration not listed); hit rate 0.8% among 300,000; AID 435005;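 active = all replicates at 75% or more, or half of them and the mean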;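 also: 0% = cytokine-treated negative control wells and 100% = positive control rescue; higher means more ATP so stronger rescue from cytokine killing; wells of about 40 µL received 100 nL stock; the first replicate is given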
A1 inh: inhibitors of the anti-apoptotic protein A1, read as caspase activation; MEF A1-2A-BIM cells, Caspase-Glo 3/7 luminescence, 3 h; percent of clofoctol response, vehicle zero; caspase activation, % (no concentration beside the values); hit rate 0.066% among 330,000;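 active = over half of replicate activation scores above 10%, or exactly half above 10 with the replicate mean above 10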;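 also: wells of about 30 µL received 50 nL stock; many hits fall short of the cut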
UCH37 DUB inh: inhibitors of human deubiquitinating enzyme UCH37; AID 588478; Q9Y5K5; hit rate 0.33% among 330,000; inhibition, % (no concentration beside the values); purified proteasome/UCH37, Ub-AMC cleavage fluorescence;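 active = mean of two replicates above 20%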;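 also: 0% = compound-free wells with enzyme and 100% = wells lacking proteasome; stock transfer was 100 nL into about 20 µL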
Target sequence (Q9Y5K5 whole entry, looked up): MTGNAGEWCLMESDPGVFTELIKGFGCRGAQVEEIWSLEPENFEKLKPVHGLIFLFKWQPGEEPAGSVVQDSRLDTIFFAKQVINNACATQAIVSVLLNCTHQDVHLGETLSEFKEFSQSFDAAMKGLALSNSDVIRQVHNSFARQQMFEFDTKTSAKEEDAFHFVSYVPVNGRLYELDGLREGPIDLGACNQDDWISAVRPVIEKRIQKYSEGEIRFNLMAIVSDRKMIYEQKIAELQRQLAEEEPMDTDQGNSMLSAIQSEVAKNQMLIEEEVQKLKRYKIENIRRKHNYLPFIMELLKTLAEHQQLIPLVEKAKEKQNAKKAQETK
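Material: Human UCH37 enzyme supplied as purified proteasome complex | Schedule: 30 min compound-proteasome preincubation then 25 min substrate reaction, room temperature | Detection: AMC fluorescence from Ub-AMC cleavage, excitation 355 nm, emission 460 nm | Benchmarks: Wells without proteasome as full block, compound-free enzyme plus substrate as uninhibited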
E coli growth: E. coli growth inhibition. Escherichia coli growth, OD600, 23 h; active compounds read low. OD600 absorbance (no concentration beside the values). hit rate 0.21% among 330,000. AID 1053175;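 active = OD600 absorbance below the run mean of sample wells minus 3.6 SD, in any replicate, cut at about 0.56 in these data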;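 also: stock transfer was 300 nL into about 60 µL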
rRNA inh HTS OD600: also measured in rRNA inh HTS; calls as there; OD600 change, %; measured here: OD600 growth;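 optical density of the mix in the first replicate; 0 = DMSO median and -100 = no signal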
rRNA inh HTS RFP: also measured in rRNA inh HTS; calls as there; RFP signal change, %; measured here: RFP humanized mutant strains;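 first replicate; 0 = DMSO median and -100 = no signal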
Numbers without * were called inactive; i = inactive; . = no result given; & = joins results of further samples.

cpd | Compound | T cruzi repl | rRNA inh HTS | rRNA inh HTS OD600 | rRNA inh HTS RFP | FGF22 binding | MLL AF4-AF9 inh | Beta cell apopt | A1 inh | UCH37 DUB inh | E coli growth
1 | CCCCOC(=O)Cn1c2ccc(OC)cc2c2nc3ccccc3nc21 | -2 | . | . | . | . | . | 0 | -0.7 | 4.7 | 0.68
2 | CC1CN(S(=O)(=O)c2cn(C)c(=O)n(C)c2=O)CC(C)O1 (centres undefined) | -8 | 0 | 4 | -2.9 | i | -4.6 | 0 | -0.4 | 1.2 | 0.68
3 | O=C1c2[nH]nc(-c3ccccc3O)c2C(c2cccc(Cl)c2)N1Cc1ccco1 (centres undefined) | 22 | . | . | . | . | . | 8 | -0.1 | 2.5 | 0.64
4 | COc1ccc2c(c1)c(C(=O)CN1CCN(c3ccccc3)CC1)c(C)n2C | 22 | . | . | . | . | . | 1 | 1.0 | 4.5 | 0.69
5 | O=C(N/C(=C\c1ccccc1)C(=O)N1CCCCC1)c1ccco1 | -14 | 1 | 0 | -1.2 | i | -6.1 | 0 | -0.1 | 5.4 | 0.71
6 | C(=N\Nc1nc2ccccc2[nH]1)/C1CCCCC1 | 17 | -6 | 3 | 2.6 | i | 26* | -4 | -1.0 | . | .
7 | CCn1cc(C(=O)NCCCN(CC(C)C)CC(C)C)c(=O)c2cc(S(=O)(=O)N3CCOCC3)ccc21 | -1 | -2 | 8 | -3.3 | i | -0.6 | 0 | 0.6 | 3.8 | 0.64
8 | O=C(c1ccccc1)c1ccc(OCCO)cc1 | -2 | 7 | -1 | -2.5 | i | -2.5 | 1 | -1.5 | 2.1 | 0.64
9 | Cc1c(C(=O)NCCCN2CCCCC2)oc2ccc3c(c12)C(O)CC1(CCCCC1)O3 (centres undefined) | 20 | -7 | -8 | -5.4 | i | 8.4 | 2 | 0.8 | -29 | 0.7
10 | Cc1c(C(=O)O)oc2c1C(O)CC(C)(C)C2 (centres undefined) | -13&-19 | . | . | . | . | . | -3 | 0.7&0.4 | 0.3&-0.9 | 0.72&0.7
11 | CCN(CC(=O)NCc1ccc(F)cc1)C(=O)c1oc2ccccc2c1C | -12 | -1 | -1 | 2.6 | i | 0.6 | -9 | 0.5 | -0.4 | 0.67
12 | CCCCS(=O)CC(CS(=O)CCCC)OC(=O)c1ccccc1 (centres undefined) | -4 | . | . | . | . | . | 3 | 0.0 | 1.9 | 0.7
13 | O=c1[nH]c(SCc2n[nH]c(=S)n2-c2ccccc2)nc2ccccc12 | -9 | . | . | . | . | . | -3 | -0.5 | -0.1 | 0.72
14 | CCOC(=O)c1ccccc1NC(=O)COC(=O)CCNS(=O)(=O)c1ccc(C)c(C)c1 | -11 | -11 | -26 | 1.5 | i | 1.1 | 0 | 0.1 | 5.2 | 0.68
15 | CCOC(=O)c1c(S(=O)(=O)N2CCCCCC2)c(C)n(C)c1C | 7 | 11 | 7 | 1.7 | i | 6.0 | . | 1.1 | 1.3 | 0.69
16 | O=C(Nc1ccc(Cl)cn1)C1CCCN1S(=O)(=O)c1cccc2ccccc12 (centres undefined) | 9 | . | . | . | . | . | 2 | 0.4 | 1.6 | 0.71
17 | C#CCOCCOCCOCCNc1nc(N2CCN(C(=O)[C@H](Cc3cc4ccccc4[nH]3)n3cc(C(N)CC(C)C)nn3)CC2)nc(N2CCN(C(=O)[C@H](CCC(=O)O)n3cc(C(N)[C@H](C)CC)nn3)CC2)n1 (some centres undefined) | 0 | . | . | . | . | . | 6 | -1.2 | 2.0 | .
18 | CCCN(CCC)C(=O)c1ccc2c(c1)N(Cc1ccccc1)C(=O)CS2=O (centres undefined) | -10 | -8 | -25 | -4.0 | i | -3.2 | -3 | -0.3 | 3.5 | 0.75
19 | COc1cc(OC)cc(C(=O)NC(=S)Nc2ccc(N3CCCC3)cc2)c1 | 8 | 10 | 1 | 1.5 | i | -2.0 | 5 | 0.5 | 2.2 | 0.68
20 | C=C[C@@H]1c2cc(C)ccc2N(S(=O)(=O)c2ccc(C)cc2)[C@H](c2ccc(OC(C)=O)cc2)C1(C#N)C#N | . | 19 | 21 | -2.0 | i | 3.3 | 17 | 1.3 | 1.9 | .
21 | COc1cc(NC(=S)Nc2cccc(Cl)c2Cl)c(OC)cc1Cl | 28 | -7 | -2 | -0.6 | . | . | -4 | 0.1 | -0.5 | 0.72
22 | COc1ccc(C(N)CCc2ccc(C)o2)cc1 (centres undefined) | 10 | . | . | . | . | . | -4 | -0.3 | -0.2 | 0.75
23 | Cc1nn(Cc2ccccc2Cl)c(C)c1NC(=O)c1noc(C(C)C)c1[N+](=O)[O-] | 0 | 2 | -9 | 6.9 | i | 3.5 | . | . | 3.2 | 0.67
24 | O=C(NNC(=O)C12CC3CC(CC(O)(C3)C1)C2)c1csc(N2CCOCC2)n1 | -1 | 24 | 23 | 0.1 | i | -0.6 | -5 | 0.7 | -0.4 | 0.72
25 | O=C(NCCC(=O)N1CCN(c2ccccc2O)CC1)c1ccc(Cl)cc1 | -3 | 7 | 0 | 3.3 | i | 0.0 | -2 | 0.7 | 1.7 | 0.7
26 | Cc1ccc2c(c1)-c1c(cnn1CC(=O)N(CCC#N)c1ccccc1)CO2 | 4 | -4 | -9 | 2.0 | i | -0.9 | -7 | 0.0 | 1.6 | 0.66
27 | CCOC(=O)c1cc(C#N)c(N2CCN(c3ccc(OC)cc3)CC2)[nH]c1=O | -13 | -8 | -14 | -4.1 | i | 0.5 | 1 | 0.1 | 4.8 | 0.65
28 | O=C(CCCOc1ccc(Cl)cc1Cl)NCCc1nnc2ccccn12 | 7 | -2 | -5 | -1.8 | i | -3.3 | -4 | 2.0 | 3.9 | 0.65
29 | CCCCN(C(=O)c1ccco1)C1CCS(=O)(=O)C1 (centres undefined) | -4 | 2 | 10 | -1.9 | i | -1.3 | 3 | 0.0 | 2.7 | 0.65
30 | O=C(c1ccccc1Cl)N1CCCC(c2nc3c(nnn3Cc3ccccc3)c(=O)[nH]2)C1 (centres undefined) | 21 | -40 | -57 | -3.3 | i | 0.1 | . | -0.3 | 2.4 | 0.64
31 | CC(C)=CCN1CCN(Cc2cc(CC(C)C)n[nH]2)CC1CCO (centres undefined) | 6 | 5 | 2 | 5.0 | i | 2.6 | -6 | -0.1 | 3.1 | 0.67
32 | CCn1cc(C2=NC(CC(C)C)CO2)c2ccccc21 (centres undefined) | 12 | -21 | -12 | 11 | i | -7.9 | 3 | 0.7 | 3.0 | 0.63
33 | CCOc1cc(N2CCOCC2)c(OCC)cc1NC(=O)c1ccccc1 | 6 | -6 | -35 | -5.0 | i | -1.0 | -2 | 0.6 | 4.9 | 0.72
34 | Cc1cc[n+](CC(=O)c2cccc([N+](=O)[O-])c2)c2ccccc12 | 15 | 12 | 10 | 63 | i | 6.9 | . | -0.9 | 2.7 | 0.71
35 | CSCCC(NC(=O)c1ccccc1)C(=O)N1CC(C)OC(C)C1 (centres undefined) | . | 5 | 8 | -1.1 | i | 0.1 | 0 | -0.3 | -0.8 | 0.65
36 | COc1ccccc1CNC(=O)Cn1cccc1C(=O)c1ccccc1C | 2 | -6 | -8 | 3.6 | i | -4.7 | -4 | 0.1 | 2.9 | 0.69
37 | O=C(NCC1CCCO1)c1cc2ccccc2[nH]1 (centres undefined) | -11 | . | . | . | . | . | -5 | -0.5 | 3.3 | 0.64
38 | CCc1ccc(N(CC)C(=O)Cc2c(C(=O)O)n(C)c3ccccc23)cc1 | -19 | -3 | 1 | -0.9 | i | 0.4 | 0 | 0.7 | 2.8 | 0.64
39 | O=C(Nc1ccccn1)c1ccc(Cl)c(S(=O)(=O)N2CCc3ccccc32)c1 | . | -28* | -17* | -0.8* | i | -2.0 | -4 | 0.1 | 2.5 | 0.72
40 | CCCCN(c1ccccc1)S(=O)(=O)c1ccc2c(c1)CCN2C(=O)CCC(=O)O | -1 | . | . | . | . | . | . | 0.6 | 4.1 | 0.66
41 | CCn1c(C)cc2c(c1=O)C(c1ccc3c(c1)OCO3)C(C#N)=C(N)O2 (centres undefined) | -3 | . | . | . | . | . | -2 | 1.1 | 1.3 | 0.69
42 | Cc1nc2ccccn2c1C(=O)N=Nc1c(O)n(CCC(C)C)c2ccccc12 | 50 | . | . | . | . | . | 20 | -0.3 | 7.5 | 0.69
43 | CN(C)C(=S)Nc1ccc(N2CCOCC2)cc1 | -3 | 18 | 0 | 2.9 | i | 3.8 | -1 | 1.1 | 2.3 | 0.66
44 | COc1ccc(N2C(=O)[C@@H]3[C@H](C2=O)[C@H](C(=O)c2ccc(OC(C)=O)cc2)N2N=CC=C[C@@H]32)cc1 | -8 | . | . | . | . | . | -4 | -0.8 | 0.9 | 0.66
45 | O=C(COC(=O)c1cc(Cl)ccc1O)Nc1ccccc1C(=O)NC1CC1 | . | 6 | 7 | 0.6 | i | -12 | 3 | 0.0 | -26 | 0.71
46 | Cc1ccc(-c2cc(C(=O)N3CCOCC3)c3ccccc3n2)o1 | . | 18 | 13 | 2.1 | i | -3.9 | 19 | -0.7 | i | 0.72
47 | COc1cc(/C=N/NC(=O)CCC(=O)NCc2ccccc2)cc(OC)c1OC | -10 | . | . | . | i | -2.2 | -7 | -0.2 | . | .
48 | CCOc1cc(C2C3=C(CC(C)(C)CC3=O)N(CCOC)C3=C2C(=O)CC(C)(C)C3)ccc1O | -8 | 0 | 13 | 1.6 | i | 5.4 | . | 0.3 | -6.4 | 0.7
49 | C=CCn1c(-c2cccc([N+](=O)[O-])c2)n[nH]c1=S | -8 | . | . | . | . | . | -10 | 0.7 | 4.5 | 0.73
50 | COC(=O)c1cc(S(=O)(=O)NCc2ccccc2Cl)c[nH]1 | -7 | . | . | . | . | . | -3 | -0.3 | 10 | 0.73

Going on with the list.
cpd | Compound | T cruzi repl | rRNA inh HTS | rRNA inh HTS OD600 | rRNA inh HTS RFP | FGF22 binding | MLL AF4-AF9 inh | Beta cell apopt | A1 inh | UCH37 DUB inh | E coli growth
51 | CCc1ccc(/C=N/NC(=O)c2nnn(-c3nonc3N)c2C(C)C)cc1 | 10 | 1 | 17 | -2.5 | i | -5.0 | 3 | -0.4 | . | .
52 | Cn1c(=O)c2cc(S(=O)(=O)NCCC(=O)NC3CCCCCC3)ccc2n(C)c1=O | -5 | . | . | . | . | . | 2 | -0.2 | 2.1 | 0.68
53 | O=[N+]([O-])c1ccc(N2CCN(S(=O)(=O)c3ccc4ccccc4c3)CC2)cc1NCc1ccco1 | 37 | . | . | . | . | . | -13 | 0.3 | 9.1 | 0.81
54 | COC(=O)C1=CN(Cc2ccccc2)C=C(C(=O)OC)C1c1ccc(OC)c(OC)c1 | 9 | -14 | -6 | 2.1 | i | -10 | -1 | -0.5 | -369 | 0.71

Some entries already given, showing only UCH37 DUB inh, A1 inh and MLL AF4-AF9 inh.
item	Molecule	UCH37 DUB inh	A1 inh	MLL AF4-AF9 inh
51	CCc1ccc(/C=N/NC(=O)c2nnn(-c3nonc3N)c2C(C)C)cc1	.	-0.4	-5.0
52	Cn1c(=O)c2cc(S(=O)(=O)NCCC(=O)NC3CCCCCC3)ccc2n(C)c1=O	2.1	-0.2	.
53	O=[N+]([O-])c1ccc(N2CCN(S(=O)(=O)c3ccc4ccccc4c3)CC2)cc1NCc1ccco1	9.1	0.3	.

An excerpt. The share of hits here may be higher or lower than overall.
